GLA inh pH 4.5: blocks human alpha-galactosidase A at pH 4.5; purified enzyme, 4-MU-alpha-Gal fluorescence, pH 4.5; activity change, negative = inhibition, % at 105 µM; 230,000 tested, under 10 active; inconclusive = small, poorly fitted or top-dose-only inhibition, or a rising curve; inactive = flat fitted curve, though single readings scatter; no compound was filed as active;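 further: 0% = full activity with enzyme and -100% = basal without enzyme; dose as in the result columns while the protocol names 77 µM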
Target sequence (P06280 whole entry, looked up): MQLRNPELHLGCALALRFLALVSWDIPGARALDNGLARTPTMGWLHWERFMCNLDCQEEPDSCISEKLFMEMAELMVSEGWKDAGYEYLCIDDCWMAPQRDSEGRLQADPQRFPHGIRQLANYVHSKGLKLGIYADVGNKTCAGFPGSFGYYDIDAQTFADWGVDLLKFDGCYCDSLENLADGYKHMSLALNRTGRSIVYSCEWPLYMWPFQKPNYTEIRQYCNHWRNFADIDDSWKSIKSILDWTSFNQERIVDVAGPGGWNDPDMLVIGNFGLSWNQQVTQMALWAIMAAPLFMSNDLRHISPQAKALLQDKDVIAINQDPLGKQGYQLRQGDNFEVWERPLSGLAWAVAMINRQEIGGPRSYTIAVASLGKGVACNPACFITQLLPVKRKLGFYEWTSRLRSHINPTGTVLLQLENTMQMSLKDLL
* marks the source's active call; other numbers are inactive results; ? = inconclusive; & = joins results of further samples. This is a subset (hit frequency here may not be typical).

structure,GLA inh pH 4.5
COc1ccc(-c2oc3ccccc3c(=O)c2O)cc1OC,4.9
COC(=O)[C@@]1(Cc2ccc(OC)cc2)[C@H]2c3cc(C(=O)N4CCCC4)n(Cc4ccc(S(C)(=O)=O)cc4)c3C[C@H]2CN1C(=O)c1ccccc1,-15.4
C=CCCCCCCCCCCCC(O)CC(O)COC(C)=O (stereo not drawn) (tested in a mixture with another compound),0.9
CC/C=C\C/C=C\C/C=C\C/C=C\C/C=C\C/C=C\CCC(=O)O[C@H](COCCCCCCCCCCCCCCCC)COP(=O)([O-])OCC[N+](C)(C)C,-1.8
Nc1nc(Cl)nc2c1ncn2[C@@H]1O[C@H](CO)[C@H](O)[C@H]1O,-9.2
C[C@@H](C[N+](C)(C)C)OC(N)=O,5.0
COc1c(OC)c2occc2c2oc(=O)ccc12,1.6
Cc1noc(C)c1-c1nc(N2CCNCC2)c2ccccc2n1,3.1
COC(=O)C1(Cc2ccccc2)C2c3cc(C(=O)N4CCCC4)n(Cc4ccc(OC(F)(F)F)cc4)c3CC2CN1C(=O)c1ccccc1 (stereo not drawn),-7.2
CC(=O)OC1CC2C(C)(C)C(O)CCC2(C)C2CC[C@]3(C)C(=CC(=O)OC3c3ccoc3)C12C (stereo partly drawn),-0.4
C[N+]1(C)CCC[C@@H](OC(=O)C(O)(c2ccccc2)c2ccccc2)C1,4.3
CN(C)c1ccc(CNC(=O)C2(C)C=CCN2C(=O)c2ccccc2)cc1 (stereo not drawn),4.0

Four of the compounds above, field by field:
CC/C=C\C/C=C\C/C=C\C/C=C\C/C=C\C/C=C\CCC(=O)O[C@H](COCCCCCCCCCCCCCCCC)COP(=O)([O-])OCC[N+](C)(C)C
  GLA inh pH 4.5: -1.8

C[C@@H](C[N+](C)(C)C)OC(N)=O
  GLA inh pH 4.5: 5.0

COc1c(OC)c2occc2c2oc(=O)ccc12
  GLA inh pH 4.5: 1.6

CC(=O)OC1CC2C(C)(C)C(O)CCC2(C)C2CC[C@]3(C)C(=CC(=O)OC3c3ccoc3)C12C (stereo partly drawn)
  GLA inh pH 4.5: -0.4

Continuation.
structure,GLA inh pH 4.5
CN(C)CCc1c[nH]c2ccc(CC3COC(=O)N3)cc12 (stereo not drawn),7.6
C[C@H](N)CCCC(C)(C)O,-8.3
CCOc1ccc2nc3cc(N)ccc3c(N)c2c1,-4.9
CC1(C)[C@@H]2CC[C@@]1(C)C(=O)C2,2.3&-8.6
CC(C)(C)NC[C@@H](O)COc1nsnc1N1CCOCC1,0.0
c1ccc(-c2n[nH]c3c2oc2ccccc23)cc1,4.1
CCCn1c(-c2ccc(F)cc2)nc2c(NCCCN(CCO)CCO)nc(C)nc21,-0.1
Nc1ncnc2[nH]c(=O)[nH]c12,-6.0
Oc1cccc(O)c1,7.1
COc1cc(/C=C/C(=O)c2c(O)cc(C)oc2=O)ccc1O,-8.1
COc1ccc(CNc2ncncc2-c2ccccc2Cl)c(OC)c1,1.1
CC1(C)CCCC2(C)C3C(O)CC2(C)C(O)C31 (stereo not drawn),0.8
Cc1cccc(CNc2cc(-c3ccccc3C)ncn2)c1,-2.9
CC(Oc1ccc(O)cc1)(P(=O)(O)O)P(=O)(O)O,-6.0
CCCCC/C=C\CC1OC1C/C=C\C/C=C\CCCC(=O)O (stereo not drawn),1.5
CCC(=O)OCC(=O)[C@@]1(OC(=O)CC)[C@H](C)C[C@@H]2[C@H]3CCC4=CC(=O)C=C[C@]4(C)[C@]3(Cl)[C@@H](O)C[C@@]21C,-0.6
COC(=O)N1C2=C(c3ccccc3[C@@H]1CC(=O)Nc1ccc(Br)cc1)[C@@H]1C(=O)N(c3ccccc3)C(=O)[C@@H]1[C@H](C)C2,-5.8
COc1cccc2c1OC(=O)CC2c1ccccc1C (stereo not drawn),-2.6
COc1ccccc1-c1nccc(NCc2cnc(C)cn2)n1,-0.4
Cc1cc(C)c2c(-c3ccc(-c4ccc(C(F)(F)F)cc4)cc3)cc(=O)oc2c1,3.4
Fc1ccccc1-c1nc(-c2ccccc2)oc1NC1CCCCC1,0.3
CCCCC[C@H](O)/C=C/C=C\C/C=C\CCCCC(=O)O,-4.2
CC(C)(C)NC[C@H](O)c1cc(O)cc(O)c1,1.5
COC(=O)N1C2CC3(C)C=C(C)OC1(C)C3c1ccccc12 (stereo not drawn),6.1
O=c1[nH]c(=O)n(C2CC(O)C(CO)O2)cc1C(F)(F)F (stereo not drawn),-3.8
Nc1nc2c(ncn2C2CC(O)C(CO)O2)c(=O)[nH]1 (stereo not drawn),3.8
Cc1noc(C)c1-c1nc(N2CCOCC2)c2ccccc2n1,-2.9
CCCCC[C@H](O)CC[C@H]1[C@H](O)CC(=O)[C@@H]1CCCCCCC(=O)O,-4.6
CC(C)=CCCC1(C)C=Cc2c(c(C)cc3c2[nH]c2ccccc23)O1 (stereo not drawn),-1.1
OCC1OC([S-])[C@H](O)C(O)C1O.[Au+] (stereo partly drawn),16.2
CCCCCCCCCCCCCCCCCC(=O)NCCc1ccc(O)c(O)c1,-4.9
CCN(CC)CCCCn1c(-c2ccccc2)nc2c(NCCOC)nc(C)nc21,4.7
COC(=O)[C@@]1(Cc2ccc(OC)cc2)[C@H]2c3cc(C(=O)N(C)C)n(Cc4ccc(S(C)(=O)=O)cc4)c3C[C@H]2CN1C(=O)c1ccccc1,-6.1
COc1ccccc1/C=C\C(=O)O,4.6
CC(C)C[C@@H](CC(=O)N[C@@H](CCC(=O)O)CC(=O)O)NC(=O)[C@@H]1CNCC[C@H]1NC(=O)C[C@@H](NC(=O)C[C@H](CO)NC(=O)[C@@H]1CCCC[C@H]1N)C(C)C,3.9
Cc1cc(CNC(=O)[C@@H]2C[C@H]2[C@@H](NP(=O)(c2ccccc2)c2ccccc2)c2ccccc2)nn1C,-0.3
O=C(/C=C(\O)c1ccccc1)c1ccccc1O,-5.0
C[C@@H]1C(=O)OC2C[C@@]34[C@H]5C[C@@H](C(C)(C)C)[C@@]36C(O)C(=O)O[C@H]6O[C@@]4(C(=O)O5)[C@]21O (stereo partly drawn),-1.4
C[C@@](N)(C(=O)O)c1cccc(CC(=O)O)c1,-10.4
C=CCC(C)(O)C(=O)OCC (stereo not drawn),-5.3
OC1CCC2Cc3ccccc3N=C12 (stereo not drawn),7.1
C=CCC(C)(O)c1ccc(OC)cc1 (stereo not drawn),-4.0
O=C1Nc2ccccc2C(=O)N2CCC[C@@H]12,-0.1
CNC(=O)[C@H]1O[C@@H](n2cnc3c(NCc4cccc(I)c4)ncnc32)[C@H](O)[C@H]1O,0.5
O[C@@](CCN1CCCC1)(c1ccccc1)C1CCCCC1,-0.4
CCOc1nc2cccc(C(=O)OC(C)OC(=O)OC3CCCCC3)c2n1Cc1ccc(-c2ccccc2-c2nn[nH]n2)cc1 (stereo not drawn),-4.9
COc1ccc(-c2nc(-c3ccccc3)c(Nc3c(C)cccc3C)o2)cc1,-2.2
CC(=O)N(OCc1ccccc1)[C@@H]1c2cc(C#N)ccc2OC(C)(C)[C@H]1O,-9.5
c1ccc(CN2CCC3(CCc4ccccc43)CC2)cc1,-4.8
CCCCC[C@H](O)C=C[C@H]1[C@H](O)CC(=O)[C@H]1CCCCCCC(=O)O,1.6
O=c1cc(-c2cccc(O)c2)oc2ccc(O)cc12,21.6
CCCCCCCC1=Cc2ccccc2C(C(C(C)=O)C(=O)OC)N1C(=O)OC (stereo not drawn),-4.2
COc1ccc(CN(CCN(C)C)c2ncccn2)cc1,-14.5
C/C=C1\C2C=C(C)C[C@@]1(N)c1ccc(=O)[nH]c1C2,3.0
O=C(NC1CCN(Cc2ccccc2)CC1)c1ccc(I)cc1,-13.0
CCCC(=O)Nc1ncnc2c1ncn2C1OC2COP(=O)(O)OC2C1OC(=O)CCC (stereo not drawn),-3.2
CCCCCCCCCCCCCCCCCCOCC(O)CO (stereo not drawn),-3.2
CCCCC/C=C\C/C=C\CCCCCCCC(=O)NCCc1ccc(O)c(O)c1,1.3
CCCCNC(=O)C(c1ccc(OCC(=O)OC)c(C(=O)OC)c1)N(CCc1ccccn1)C(=O)CCCCCN1C(=O)NC(c2ccc(-c3ccccc3)cc2)C(C(=O)OCc2ccccc2)=C1C (stereo not drawn),-21.7
CN(C)Cc1ccccc1-c1ccc2ncnc(N(C)Cc3ccco3)c2c1,4.3

(more compounds)
structure,GLA inh pH 4.5
CC1(C)CC2C1CCC1(C)OC2(C)CCC1O (stereo not drawn),0.0
Cc1c(C)c2c(c(C)c1O)CC[C@@](C)(C(=O)O)O2,-11.1
COc1ccc2ccccc2c1-c1c(OC)ccc2ccccc12,-4.3&-0.4
CC(=O)O[C@@]1(C(C)=O)CCC2C3C=C(C)C4=CC(=O)CCC4(C)C3CCC21C (stereo partly drawn),0.8
COc1cc(N[C@@H](C)CCCN)c2ncccc2c1,4.6
CC(CCC(=O)O)C1CCC2C3CC(O)[C@@H]4CC(O)CC[C@]4(C)C3CC[C@@]12C (stereo partly drawn),7.2
C[N+]1(C)CCC[C@H]1C(=O)[O-],6.8
COc1cccc(-c2nccc(-n3ccnc3)n2)c1,3.8
CN1c2cc3c(cc2N=C(c2ccc(C(=O)O)cc2)c2ccccc21)C(C)(C)CCC3(C)C,-9.7
O=C(O)C(S)[C@@H](S)C(=O)O (stereo partly drawn),1.2
CC#CCN1c2ccccc2[C@]23C[C@@H](C(=O)OC)N(C(=O)c4cccs4)C2=NC(C(=O)OC)=C(C(=O)OC)[C@H]13,1.9
Cc1nc(NCc2ccccc2)c2nc(-c3ccccc3)n(CC3CCN(C)CC3)c2n1,2.3
COc1cccc2c1C(=O)c1c(O)c3c(c(O)c1C2=O)C[C@](O)(C(=O)CO)C[C@H]3O[C@@H]1C[C@H](N)[C@H](O)[C@H](C)O1,-2.1
CC(=O)N1[C@H](C)C=C[C@]1(Cc1ccccc1)C(=O)NCc1ccccn1,-0.1
CC1=C(/C=C/C(C)=C/C=C/C(C)=C/C=C/C=C(C)/C=C/C=C(C)/C=C/C2=C(C)C(=O)CCC2(C)C)C(C)(C)CCC1=O,-1.0
O=c1[nH]cnc2c1nc(Cl)n2C1OC(CO)C(O)C1O (stereo not drawn),5.4
COc1ccc(-c2nc(-c3ccccc3)oc2Nc2c(C)cccc2C)cc1,5.3
C[C@@]12CCC(=O)C=C1CC[C@H]1[C@H]3CC[C@](O)(C(=O)CO)[C@]3(C)CC(=O)[C@@H]12,2.8
COC(=O)C1=C(C(=O)OC)[C@@H]2N(Cc3ccccc3)c3ccccc3[C@@]23C[C@@H](C(=O)OC)N(S(=O)(=O)c2cccs2)C3=N1,8.5
CO[C@]1(NC(=O)CSCC#N)C(=O)N2C(C(=O)O)=C(CSc3nnnn3C)CS[C@H]21,8.1
COc1cc2oc(=O)c3c4c(cc5ccc(c1CCN(C)C)c2c53)OCO4,1.2
CN1C[C@H](C(=O)N[C@]2(C)O[C@]3(O)[C@H]4CCCN4C(=O)[C@H](Cc4ccccc4)N3C2=O)C[C@H]2c3cccc4[nH]cc(c34)C[C@@H]21,2.9
N#CCCCS(=O)(=O)c1nnnn1C1CCCCC1,-2.6
COc1cc(OC)c2cc(-c3ccncc3)cnc2c1,?
Cc1nc(NC2CCCCC2)c2nc(-c3ccccc3)n(CCN(C)C)c2n1,-0.8
COC(=O)c1ccc(C#CC(NP(=O)(c2ccccc2)c2ccccc2)c2ccccc2)cc1 (stereo not drawn),-11.6
CC1(C)CCC=[N+]1[O-],-6.6
CCCC[C@@H](C=O)NC(=O)[C@H](CC(C)C)NC(=O)[C@H](CC(C)C)NC(C)=O,-4.3
COC(=O)C(c1ccc(OC)c(OC)c1)C1c2ccccc2C=C(C)N1C(=O)OC (stereo not drawn),-1.1
CCCCCCCCCCCCC/C=C/[C@@H](O)[C@@H](N)COP(=O)(O)O,1.9&-8.5
O=C(O)C1Cc2c([nH]c3ccccc23)C(c2coc3ccccc3c2=O)N1 (stereo not drawn),-4.1
CC[C@H](/C=C/[C@@H](C)[C@H]1CC[C@H]2C3CC=C4C[C@@H](O)CC[C@]4(C)C3CC[C@]12C)C(C)C (stereo partly drawn),-2.6
COC(=O)C1(Cc2ccccc2)C=C2C(=C(c3ccccc3)C(=O)C2C)CN1 (stereo not drawn),-0.1
COC(=O)[C@@H]1C[C@@]2(O)[C@@H](O)[C@@H](O)[C@@H](O)C[C@H]2N1Cc1ccc(N2CCOCC2)cc1,4.1
CC(=O)N[C@@H](CSC/C=C(\C)CC/C=C(\C)CCC=C(C)C)C(=O)O,-12.7
COC(=O)[C@@]1(Cc2ccc(F)cc2)[C@H]2c3cc(C(=O)N4CCCC4)n(CCN4CNCC4=O)c3C[C@H]2CN1C(=O)c1ccccc1,5.5
COc1cc(OC)c2c(c1Cl)O[C@@]1(C2=O)[C@H](C)CC(=O)C[C@@H]1OC,3.9
CN(C)c1ccc(O)c2c1C[C@@H]1C[C@H]3C(N(C)C)C(=O)C(C(N)=O)=C(O)[C@@]3(O)C(=O)C1=C2O (stereo partly drawn),11.1
C=C1c2ccccc2O[C@H](C(=O)OCC)C1OC (mixture of isomers),-6.1
CCC1=C2CC[C@H]3C(=O)N(C)C(=O)[C@H]3[C@H]2[C@@]2(C)C(=O)N(CC(=O)OC)C(=O)N2C1=O,4.5
CC1(C)CCC2=C(O1)c1ccccc1C(=O)C2=O,-5.0&-9.9
Cc1ccc(CC2(O)CCN(CCOc3ccc(O)cc3)CC2)cc1,-2.6
Cc1ccccc1-c1cncnc1N1CCNCC1,2.0
CC(=O)OC1CC2C(C)(C)C(O)C=C[C@@]2(C)C2CC[C@@]3(C)C(c4ccoc4)OC(=O)C4OC43[C@]12C (stereo partly drawn),-1.6

Source: PubChem BioAssay
